Assay outcomes deposited in PubChem by ICCB-Longwood Screening Facility, Harvard Medical School.
MgrA DNA FP: alters Staphylococcus aureus MgrA binding to DNA; fluorescence polarization; inhibition, %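 (about 10 µg/mL by stock and volumes)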; 84,000 compounds, 0.13% hits;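 active means above 50% in either of two replicates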;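 further: 0% = protein plus DNA without compound and 100% = DNA alone without protein; higher means less MgrA bound to DNA so lower polarization; one replicate is shown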
Sa helicase inh: blocks Staphylococcus aureus DNA helicase. AID 485395. inhibition, %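 (tested at about 80 µM)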. 120,000 compounds, 0.05% hits. purified S. aureus helicase, fluorescence unwinding assay; about half of the hits fall short of the stated cut;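 active means both duplicates at 50% or more, or one of them with a favoured structure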;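 further: 0% = mean of negative control wells and 100% = mean of positive control wells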
* hit, by the source's call; x = not tested or not shown.

SMILES	MgrA DNA FP	Sa helicase inh
COc1ccc(NC(=O)C(Cc2ccccc2)NS(=O)(=O)c2cccs2)c(OC)c1 (stereo unspecified)	x	6
CC(C(=O)N(C)C)N(c1cccc(Cl)c1)S(C)(=O)=O (stereo unspecified)	-1.0	21
c1ccc(CCn2c(C3CCCO3)nc3ccccc32)cc1 (stereo unspecified)	x	13
CCOc1ccccc1C(=O)N(Cc1cc2ccccc2[nH]c1=O)C(C)C	-3.5	15
CCc1ccc(NC2CC(=O)NC2=O)cc1 (stereo unspecified)	-1.0	21
CN1C(=O)Cc2c1nc(N)c1c(N)nc(N3CCN(C(=O)c4ccco4)CC3)c(C#N)c21	x	31
N#Cc1nccc2ccccc12	-0.7	x
CCOC(=O)c1ccc(NCC(=O)N2CCc3ccccc32)cc1	3.0	13
COc1cccc2c1OC(C(C)C)N1N=C(c3cc(C)ccc3O)CC21 (stereo unspecified)	x	-26
O=C(O)CC(C(=O)O)c1ccc(Cl)cc1Cl (stereo unspecified)	0.2	12
CC(C)C(NC(=O)c1ccc(F)cc1)C(C)C	0.6	6
O=C(NCc1ccccc1)c1ccc2c(c1)sc1nc(-c3ccccc3)cn12	-0.8	5
CCOC(=O)c1c(NC(=O)c2cc(-c3cccc(OC)c3)on2)sc(C)c1C	x	23
O=C1NC(=S)N(c2ccc(Cl)cc2)C(=O)/C1=C/c1cc2c(cc1Br)OCO2	12	x
COC(=O)C(C)Oc1ccc2cc(-c3nc4ccccc4s3)c(=O)oc2c1 (stereo unspecified)	x	-13
Cn1c(=O)c(C(N)=S)cn(-c2ccccc2)c1=O	0.3	x
Cc1ccccc1OCCn1cnc2ccccc21	x	-28
Cc1cc(Nc2ccc(O)cc2)c2cc(Cl)ccc2n1	x	8
COc1ccc(CCN(C)Cn2ncn(C)c2=S)cc1OC	x	-15
CNC(=O)c1oc2ccc3c(c2c1C)C(=O)CC1(CCCCC1)O3	4.2	24
CCOC(=O)c1cnn(-c2c(Cl)cc(Cl)cc2Cl)c1COC	-2.4	x
Cc1ccc(-c2noc(C3CCCN(C(=O)c4ccccc4)C3)n2)o1 (stereo unspecified)	-4.0	6
CC(C)(C)C(=O)CSc1nc2ccccc2c(=O)[nH]1	0.8	7
COc1ccc(C(c2ccccc2)N2CCNCC2)cc1 (stereo unspecified)	-2.1	15
Cc1ccc(S(=O)(=O)NC2=NCN(CC3CCCO3)CN2)cc1 (stereo unspecified)	5.0	10
Cc1nc2ncnn2c(C)c1CCC(=O)N(Cc1cccnc1)c1ccc2c(c1)OCO2	x	-82
C=C1C2(C(=O)Nc3ccccc3OC)CCC(C2)C1(C)C (stereo unspecified)	0.2	10
CCCC(c1nnnn1Cc1ccccc1)N1CCN(c2ccccc2)CC1 (stereo unspecified)	-1.3	-6
C/C(=N\NC(N)N)C1CCCCCCCCCCC1	-2.8	0
O=C(CN1C(=O)CCC1=O)Nc1ccccc1Oc1ccccc1	x	-6
Cc1cc(=O)[nH]c(SCC(=O)N2CCNC2=O)c1C#N	x	-3
CC1=CC(c2ccc(Cl)cc2)n2nc(N3C(=O)c4ccccc4C3=O)nc2N1 (stereo unspecified)	x	23
CCOc1ccc(S(=O)(=O)Nc2ccc(S(=O)(=O)N3CCOCC3)cc2)cc1	4.8	14
NC(=NCCc1c[nH]c2ccccc12)NC(=O)c1ccccc1	0.7	12
O=C(COc1ccccc1)Nc1ccccc1N1CCN(c2ccccc2)CC1	-0.8	12
CCN1C(=O)c2ccccc2S(=O)c2ccc(C(=O)NCC(OC)OC)cc21 (stereo unspecified)	0.6	-5
COc1ccccc1NC(=S)N1CCOCC1	2.9	x
O=C(CNC(=O)c1ccc(-c2ccccc2)cc1)OCc1nnc(-c2ccccc2)o1	x	-21
Cc1cc(N)c2ncccc2c1	-1.9	6
CC(C)CNC(=O)c1ccccc1NC(=O)c1ccco1	1.1	-18
Cc1ccccc1-c1nc(C#N)c(N2CCN(c3ccccc3)CC2)o1	-0.7	4
CCOc1ccc(N=C=S)cc1	x	30
COc1ccc(C2=C[N+](=O)C(C)(C)C(C)(C)N2[O-])cc1	1.1	5
CCN=c1scc(-c2ccco2)n1/N=C/c1cccc(C(F)(F)F)c1	x	8
C=CCN1C(=O)S/C(=C/c2ccc(N3CCOCC3)cc2)C1=O	5.8	-1
CCN(C(=O)CCCN1C(=O)/C(=C\c2cccs2)SC1=S)C1CCS(=O)(=O)C1 (stereo unspecified)	x	5
NS(=O)(=O)c1ccc2c(c1)OCCO2	x	-11
COc1ccc(NC(=O)C2CC(=O)N(Cc3ccc4c(c3)OCO4)C(=Nc3ccccc3)S2)cc1 (stereo unspecified)	-0.2	x
Cc1onc(-c2ccccc2)c1CNS(=O)(=O)c1cccc(Cl)c1	-1.5	x
CCn1c2ccccc2c2nc(C)sc21	-0.8	2
COc1ccc(C(=O)NCCS(=O)(=O)Cc2ccc(F)cc2)cc1	-2.5	x
C=CCc1cccc2cc(C(=O)Nc3ccc(S(=O)(=O)Nc4nnc(CC)s4)cc3)c(=O)oc12	-0.8	x
O=S1(=O)CCN2C(=N1)OC(c1ccccc1)=C2c1ccccc1	x	14
O=C(c1ccccc1F)N(Cc1ccco1)c1ccc(O)cc1	-1.0	9
COc1ccc(NC(=S)N(CC2CC=CCC2)CC2CCCO2)cc1 (stereo unspecified)	2.3	-10
COC(=O)c1ccc2c(c1)S(=O)(=O)NC(=NCc1ccco1)S2	x	4
O=C(Nc1nc(-c2ccccc2)cs1)Oc1ccccc1	4.3	17
OCC1c2ccccc2-c2ccccc21	1.0	12
CNC(=O)CSc1nnc(NC2CCCCC2)s1	x	3
O=C(/N=C1/NC(=O)C(F)(C(F)(F)F)S1)NC1CCCCC1 (stereo unspecified)	x	5

Three structures out of the list, ordered by heavy-atom count, descending:
SMILES	MgrA DNA FP	Sa helicase inh
C=CCc1cccc2cc(C(=O)Nc3ccc(S(=O)(=O)Nc4nnc(CC)s4)cc3)c(=O)oc12	-0.8	x
CCN=c1scc(-c2ccco2)n1/N=C/c1cccc(C(F)(F)F)c1	x	8
Cc1onc(-c2ccccc2)c1CNS(=O)(=O)c1cccc(Cl)c1	-1.5	x

(further entries)
SMILES	MgrA DNA FP	Sa helicase inh
Cc1cc(C)c2[nH]c(=O)c(C(c3nnnn3CC3CCCO3)N3CCN(c4ccccc4F)CC3)cc2c1 (stereo unspecified)	0.6	8
O=C(c1cc(-c2ccc(Cl)cc2)on1)N1CCCC1	x	36
NNC(=O)c1cnn(-c2ccccc2)c1C(F)(F)F	0.4	x
CN(C)S(=O)(=O)c1ccc(=S)[nH]c1	x	10
CCOc1ccc(NC(=O)CN2CCCc3ccccc32)cc1	-1.4	5
COC(=O)CSc1ccccc1C(=O)OC	-2.6	2
Cc1cc2c(=O)n(CC(=O)O)cnc2s1	x	5
O=C(O)C1CCCCC1C(=O)N1CCN(C(c2ccccc2)c2ccccc2)CC1 (stereo unspecified)	1.5	5
C=C(C)Cn1c(C(O)c2ccccc2)nc2ccccc21 (stereo unspecified)	x	5
CSc1ccc(Oc2c([N+](=O)[O-])cc(C(F)(F)F)cc2[N+](=O)[O-])cc1	-2.6	x
Cc1cc(NN)nc2ccc(Cl)cc12	x	-19
CCCN(CCC)S(=O)(=O)c1ccc(C(N)=O)cc1	-0.8	-13
CCOC(=O)c1[nH]c2c(c1-c1ccccc1)C(=O)CC(c1ccc(Cl)cc1)C2 (stereo unspecified)	4.9	10
CCOC(=O)c1cc(=O)n(C)c2c1c(=O)oc1ccccc12	x	37
CCOC(=O)/C(=C(/C)Nc1ccc(F)cc1)C1CC(=O)N(c2ccc(F)cc2)C1=O (stereo unspecified)	-0.5	x
Cc1ccccc1N=Cc1ccco1	0.5	7
Nc1cccc(-c2cn3ccccc3n2)c1	18	0
CCCCc1c(C)nc(-c2ccc(Cl)cc2)[nH]c1=O	0.0	x
COc1ccc(-c2cc(CCCC(=O)NCCc3ccc(OC)cc3OC)no2)cc1	x	-12
CCc1nc2sc3c(NCCN4CCOCC4)ncnc3c2c2c1CCCC2	x	4
Cn1cnnc1SCC(=O)Nc1sc2c(c1C#N)CCC2	x	17
CCCOc1ccc(Br)cc1/C=C1\NC(=S)NC1=O	3.6	0
NC(=O)c1oc2ccccc2c1NC(=O)CSc1ccccc1	-0.8	6
CN1C(=O)S/C(=C\c2ccc(Oc3ccc([N+](=O)[O-])cc3[N+](=O)[O-])cc2)C1=O	-1.7	x
CCOc1ccc(CCNC(=O)c2nc(-c3cccnc3)no2)cc1	x	21
CC1CC(C)CN(S(=O)(=O)c2ccc3[nH]cc(C(=O)NC4CCCCC4)c(=O)c3c2)C1 (stereo unspecified)	1.8	5
Cc1nn(CCC(=O)N2CCc3ccccc32)c(C)c1S(=O)(=O)N1CCCC1	x	3
Cn1c(SCC(=O)c2ccccc2)nc2ccccc2c1=O	-0.8	9
C1=CC2c3c(ccc4ccccc34)NC(c3cccc4ccccc34)C2C1 (stereo unspecified)	-0.5	x
O=C(CC(C(=O)N1CCc2ccccc21)C(=O)N1CCc2ccccc21)c1ccccc1	-1.9	x
O=C1NC(=Nc2cccc(C(=O)O)c2)S/C1=C/c1ccc(-c2ccc(C(=O)O)cc2)o1	39	8
N#CCC(=O)c1ccc(Cl)cc1	-0.9	x
CCN(CC)S(=O)(=O)c1ccc(NC(=O)COc2ccc3c(C)cc(=O)oc3c2)cc1	x	-13
O=c1oc2ccccc2nc1/C=C(\O)c1ccccc1	3.5	x
O=C(CCSc1c(Cl)cccc1Cl)c1ccco1	-3.0	x
CC1CCc2cc(F)ccc2N1C(=O)C12CCC(c3nc(C#N)c(C#N)nc31)C2(C)C (stereo unspecified)	1.8	10
COc1cccc2cc(C(=O)Nc3ccccc3)c(=O)oc12	x	19
O/N=C/c1cc2ccccc2nc1Cl	x	1
O=S(=O)(Cc1ccc(F)cc1)Cc1noc(-c2ccc(OC(F)(F)F)cc2)n1	-2.4	x
O=C(Cn1nnc(-c2cccc(C(F)(F)F)c2)n1)NC(=O)NC1CCCC1	x	1
CCC1C(=O)n2nc(-c3ccccc3)cc2N=C1C (stereo unspecified)	x	16
Cc1nn(C2CCS(=O)(=O)C2)c(Cl)c1CNCCCn1ccnc1 (stereo unspecified)	x	7
COc1cc(C2Sc3ccccc3NC3=C2C(=O)c2ccccc23)ccc1OC(C)=O (stereo unspecified)	-1.5	10
CCOC(=O)c1ccc(-c2ccc(/C=C(/C#N)C(=O)Nc3ccc(C)cc3C)o2)cc1	x	-32
CCOC(=O)CSc1nnc2sc3ccccc3n12	3.5	x
O=C1c2ccccc2C(NCc2cccnc2)N1Cc1cccnc1 (stereo unspecified)	2.5	-1
Cn1nc(-c2ccccc2)c(C#N)c1S(C)(=O)=O	0.9	x
O=C(NC1CCSc2ccccc21)C1CCN(S(=O)(=O)c2ccccc2)CC1 (stereo unspecified)	x	23
O=C(CCOc1ccc(F)cc1)Nc1nccs1	-0.6	x
CC(=O)Nc1cccc(C(C)(C)C)c1	-3.2	x
CCN(CC)C(=S)SCc1ncc(-c2ccccc2)o1	x	-9
Cc1cccc(NC(=O)c2cc(N3C(=O)C=CC3=O)ccc2Cl)c1	21	9
Cc1c(C(=O)OCC(N)=O)sc2nc(-c3cccs3)cc(C(F)(F)F)c12	x	2
Fc1cccc(NCc2cccn2-c2nnc(N3CCCC3)s2)c1	x	2
CCOC(=O)c1cn(CC(=O)N(Cc2ccccc2)c2ccc(Br)cc2)nn1	x	5
Cc1cccc(NC(=O)c2cnn(-c3ccccc3)c2NC(=O)c2ccco2)c1	0.2	-16
CC(C)C(NC(=O)c1cc2ccccc2cc1O)C(=O)O (stereo unspecified)	x	-14
CC1(C)Cc2ccccc2C(NNC(N)=O)=N1	x	33
CC(=O)N1CCc2c(sc3c2c(=O)n(-c2ccccc2)c(=O)n3Cc2ccccc2C#N)C1	x	10
S=C(Nc1cccc(Cl)c1)NC12CC3CC(CC(C3)C1)C2	-0.3	12
New compounds follow:
SMILES	MgrA DNA FP	Sa helicase inh
COc1ccc(CNC(=O)c2cc(=O)[nH]c3ccc(S(=O)(=O)N4CCCC4)cc23)cc1	0.2	-7
COc1cc(OC)c(NC(=O)c2oc3ccc4c(c3c2C)C(=O)CC2(CCCC2)O4)cc1Cl	4.6	23
CNC(=S)N1CCNC(=O)C1CC(=O)Nc1cc(Cl)ccc1C (stereo unspecified)	0.5	5
C=CCNC(=O)Nc1c[nH]c2ccc(F)cc2c1=O	x	-3
CCOc1ccc(CC2c3cc(OCC)c(OCC)cc3CCN2C(=O)COC(=O)c2cnccn2)cc1OCC (stereo unspecified)	x	-3
COC(=O)C1CCC(NC(C)=O)C(C(=O)OC)C1 (stereo unspecified)	-2.5	x
Cc1ccc(NC(=O)CN(C)CC(=O)Nc2ccccc2)cc1	x	-8

Entries from the list above with a furan ring, fused or not, in the order listed:
SMILES	MgrA DNA FP	Sa helicase inh
CN1C(=O)Cc2c1nc(N)c1c(N)nc(N3CCN(C(=O)c4ccco4)CC3)c(C#N)c21	x	31
CNC(=O)c1oc2ccc3c(c2c1C)C(=O)CC1(CCCCC1)O3	4.2	24
Cc1ccc(-c2noc(C3CCCN(C(=O)c4ccccc4)C3)n2)o1 (stereo unspecified)	-4.0	6
CC(C)CNC(=O)c1ccccc1NC(=O)c1ccco1	1.1	-18
CCN=c1scc(-c2ccco2)n1/N=C/c1cccc(C(F)(F)F)c1	x	8
O=C(c1ccccc1F)N(Cc1ccco1)c1ccc(O)cc1	-1.0	9
COC(=O)c1ccc2c(c1)S(=O)(=O)NC(=NCc1ccco1)S2	x	4
Cc1ccccc1N=Cc1ccco1	0.5	7
NC(=O)c1oc2ccccc2c1NC(=O)CSc1ccccc1	-0.8	6
O=C1NC(=Nc2cccc(C(=O)O)c2)S/C1=C/c1ccc(-c2ccc(C(=O)O)cc2)o1	39	8
O=C(CCSc1c(Cl)cccc1Cl)c1ccco1	-3.0	x
CCOC(=O)c1ccc(-c2ccc(/C=C(/C#N)C(=O)Nc3ccc(C)cc3C)o2)cc1	x	-32
Cc1cccc(NC(=O)c2cnn(-c3ccccc3)c2NC(=O)c2ccco2)c1	0.2	-16
COc1cc(OC)c(NC(=O)c2oc3ccc4c(c3c2C)C(=O)CC2(CCCC2)O4)cc1Cl	4.6	23

These rows are one share of the data; count on the stated rates, not on these rows.
